Biofilm kill mix = mixture kills Candida albicans biofilm cells. C. albicans biofilm persisters + clotrimazole, fluorescence viability; primary screen in compound mixtures of four per well. inhibition, % at 7.6 µM. 0.02% of 120,000 active;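 active = inhibition above 30.3% in the primary screen of four-compound pools, then above 30% when the compound was retested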;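 note: compounds exposed to preformed 24 h biofilms for 48 h; the number belongs to the whole pool; some results filed as inactive read as strong as hits; inactives centre near 12; 0% = biofilm with clotrimazole alone and 100% = kill control; retested singly at about 60 µM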
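Test system: C. albicans biofilms. Buffer or medium: RPMI/MOPS medium, pH 7.0. Timing: 48 h compound exposure at 37 °C. Technique: Alamar Blue fluorescence. Evaluation: percent inhibition of biofilm viability.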
* = called active by the depositor. The list is partial. The share of hits here may be higher or lower than overall.

Molecule | Biofilm kill mix
COc1cc(NC(C)CCCN)c2ncccc2c1Oc1ccccc1 (configuration not stated) | 16
CN(C(=O)Cn1cc(C(F)(F)F)ccc1=O)c1c(N)n(Cc2ccccc2)c(=O)[nH]c1=O | 21
CCN(CC)c1ccc(/C=C(\C#N)C(=O)c2ccc(Br)cc2)cc1 | 12
Cc1ccc(Cl)cc1N1CCN(C(=O)Cc2csc(Nc3nc(=S)[nH]c4ccccc34)n2)CC1 | 11
COc1cccc(-c2nc(N3CCCC3)c3ccccc3n2)c1O | 8
O=C(NCc1ccco1)c1c(F)c(F)c(F)c(C(=O)NCc2ccco2)c1F | 0
CC1CN(C(=O)N2c3ccccc3Sc3ccccc32)CC(C)O1 (configuration not stated) | 13
Cc1nn(CC#N)c(=O)n1-c1ccc(Cl)cc1 | 15
N#CCC(=O)Nc1ccc(C(=O)Nc2cccc(S(N)(=O)=O)c2)cc1 | 30
Cc1ccc(S(=O)(=O)N2CCN(S(=O)(=O)N3CCCCCC3)CC2)cc1 | 9
O=C(NCc1ccc2c(c1)OCO2)c1cc(=O)[nH]c2ccccc12 | 48
CCOC(=O)c1cc2c(nc1C)-c1cc(Cl)cc(Cl)c1OC2O (configuration not stated) | 11
C=C(C)CN(CC)C(=O)CSc1nc(O)cc(=O)n1C1CCCC1 | 18
C=CCNC(=O)c1ccc2c3n(nc2c1)-c1ccccc1CO3 | -2
Cc1nn(-c2cccc(C(F)(F)F)c2)c(Cl)c1/C=N/Nc1cccc(C(=O)O)c1 | -3
COc1ccccc1CNC(=O)CSc1ccccc1 | 6
Nn1c(Nc2ccccc2)nc2sc3c(c2c1=O)CCCC3 | 15
COc1ccc(C(=O)N/N=C/c2cn[nH]c2-c2ccc(OC)cc2OC)cc1 | 4
CCCc1cc(=O)c2ccc(OC/C(C)=N/O)cc2o1 | 5
CCN(Cc1ccccc1)C(=O)C1CCN(Cc2ccc(SC)cc2)CC1 | 8

Next results follow.
Molecule | Biofilm kill mix
CC(C)=C(NC(=O)c1ccccc1Br)C(=O)NCCc1nc2ccccc2[nH]1 | 18
c1ccc(-c2nc3c([nH]2)CCc2nonc2-3)cc1 | 9
CCc1c(C)sc(NC(=O)/C=C/c2ccc3c(c2)OCO3)c1C(=O)OC | -13
COc1ccc(/C=N/Nc2nc3ccccc3c(=O)n2-c2ccccc2)cc1OC | 11
O=C(CC(Nc1ccccc1)c1ccc(F)cc1)c1ccccc1 (configuration not stated) | -4
COc1ccc([N+](=O)[O-])cc1N(CC(=O)N1CCOCC1)S(C)(=O)=O | 10
O=C(O)COc1ccccc1C(Nc1ccccn1)c1cc(Cl)c2cccnc2c1O (configuration not stated) | 5
Cc1cc(Cl)c(OCCCN(C)C)c(Br)c1 | 13
O=C(NCc1ccc(Cl)cc1)c1ccc(-c2ccccc2C(F)(F)F)o1 | 5
COc1ccc(NC(=O)C(=O)NNC(=O)c2cccs2)cc1 | 23
Cc1[nH]n(-c2cccc(Cl)c2)c(=O)c1C=NCc1ccco1 | 6
CC(Cc1ccccc1)NC(=O)c1ccc([N+](=O)[O-])cc1 (configuration not stated) | 2
CCN(c1ccccc1)S(=O)(=O)c1ccc(Cl)c(NC(=O)CSc2n[nH]c(N)n2)c1 | 9
CCC1N=C(SC)NC(C)=C1C(=O)c1ccccc1 (configuration not stated) | 25
COc1ccc2nc(NC(=O)CCc3cc(OC)c(OC)c(OC)c3)sc2c1 | -7
CC1=C(C#N)C(NC(=O)c2ccccc2Cl)(C(F)(F)F)C(=O)N1 (configuration not stated) | 15
C=CCc1ccc(OCCCCN2CC(C)CC(C)C2)c(OC)c1 (configuration not stated) | 12
CCOC(=O)C(CC)Sc1cc(C)nc2ccc(OC)cc12 (configuration not stated) | 2
Fc1ccc(COc2cccc(CNCc3ccncc3)c2)cc1 | -5
CC(C)(C)Nc1c(-c2cccs2)nc2ccccn12 | 0

A run of entries from further up, for reference:
Molecule | Biofilm kill mix
CCC1N=C(SC)NC(C)=C1C(=O)c1ccccc1 (configuration not stated) | 25
COc1ccc2nc(NC(=O)CCc3cc(OC)c(OC)c(OC)c3)sc2c1 | -7
CC1=C(C#N)C(NC(=O)c2ccccc2Cl)(C(F)(F)F)C(=O)N1 (configuration not stated) | 15
C=CCc1ccc(OCCCCN2CC(C)CC(C)C2)c(OC)c1 (configuration not stated) | 12
CCOC(=O)C(CC)Sc1cc(C)nc2ccc(OC)cc12 (configuration not stated) | 2
Fc1ccc(COc2cccc(CNCc3ccncc3)c2)cc1 | -5
CC(C)(C)Nc1c(-c2cccs2)nc2ccccn12 | 0

(more compounds)
Molecule | Biofilm kill mix
O=C(Nc1ccccc1)N1CCCN(c2ccc(C(F)(F)F)cn2)CC1 | 11
COc1cc(C(=O)N/N=C/c2sc(N3CCOCC3)nc2-c2ccccc2)cc(OC)c1OC | 11
COc1ccccc1/C=C/[C@@H]1C[C@H]2CN(Cc3cccc(Cl)c3)C(=O)[C@]23CCCN13 | 8
Cc1ccc(C(=O)N2CCN(CCNC(=O)C(=O)NC(C)C)CC2)cc1 | 12
C#CCn1c(=NC(=O)c2cc(-c3cccs3)nc3ccccc23)sc2cc(S(N)(=O)=O)ccc21 | 0
Cc1cc(C)cc(NC(=S)N2CCN(c3ccc(F)cc3)CC2)c1 | 5
Cc1ccc(C)c(NC(=S)N2CCN(CCO)CC2)c1 | 12
CCNC(=O)NC(=O)CN(C)c1ccccc1 | 5
Cc1ccc(NC(=O)C2CC(=O)N/C(=N/NC(=O)c3ccc(C)cc3)S2)cc1 (configuration not stated) | 19
COc1cccc(N2C(=O)C3CCCN3C2c2cccs2)c1 (configuration not stated) | 13
COc1ccccc1N(C(=O)CCl)c1cn(C(C)=O)c2ccccc12 | 2
Nc1nonc1-n1nnc(C(=O)N/N=C/c2ccc(Br)cc2)c1CSC1=NCCS1 | -4
COc1ccc(C(=O)NN2CC(O)=C(c3nc4ccccc4n3C)C2=N)cc1OC | 11
COc1ccc(C(=O)C2CCCN(C(=O)c3cccnc3OC)C2)c(C)c1 (configuration not stated) | 15
O=C(c1cc(-c2ccccc2)on1)N1CCc2ccccc2C1 | 8
O=C(CCS(=O)(=O)c1ccc(Br)cc1)Nc1cc(F)ccc1F | 3
C=CCN1C(=O)C(Cc2ccc(SC(F)F)cc2)SC1=Nc1ccc(C(=O)O)cc1 (configuration not stated) | 21
COc1ccccc1C(=O)N(NC(=O)Oc1ccccc1)C(C)(C)C | 12
COc1ccc(NC(=O)C(NC(=O)CC2NC(=O)NC2=O)c2ccccc2)cc1 (configuration not stated) | 15
CN(C)CCN(C(=O)c1ccc(S(=O)(=O)N(C)c2ccccc2)cc1)c1nc2cc3c(cc2s1)OCCO3 | 19

A draw from above in order of formula weight, falling.
Molecule | Biofilm kill mix
COc1cc(C(=O)N/N=C/c2sc(N3CCOCC3)nc2-c2ccccc2)cc(OC)c1OC | 11
C=CCN1C(=O)C(Cc2ccc(SC(F)F)cc2)SC1=Nc1ccc(C(=O)O)cc1 (configuration not stated) | 21
COc1ccc(NC(=O)C(NC(=O)CC2NC(=O)NC2=O)c2ccccc2)cc1 (configuration not stated) | 15
COc1ccc(C(=O)C2CCCN(C(=O)c3cccnc3OC)C2)c(C)c1 (configuration not stated) | 15

(further entries)
Molecule | Biofilm kill mix
Cc1ccccc1Oc1cc(-n2ncc(Cl)c(Cl)c2=O)ncn1 | 7
Cc1nn(C)c(C)c1CN(C(=O)CCc1nnc(Cc2c[nH]c3ccccc23)o1)C(C)C | 21
Cc1cccc(NC(=S)N/N=C(\c2ccccc2)C(C)C)c1 | 12
COC(=O)c1cc(C(=O)c2cc(F)ccc2O)cn2c(=O)c3c(C)c(C)sc3nc12 | 16
COc1ccc(Nc2nnc(SC(C(=O)Nc3ccc(OC)c(Cl)c3)c3ccccc3)s2)cc1 (configuration not stated) | 10
CCOc1ccc(CCNC(=O)CSCc2ccc(C)cc2)cc1OCC | 21
CNCC(=O)N1CCN(c2ncc(C(F)(F)F)cc2Cl)CC1 | 0
C/C(=N/NC(=O)CNC(=O)C(c1ccccc1)c1ccccc1)c1ccco1 | 10
CCOP(=O)(OCC)C(NC(=O)Nc1ccc(C)c(Cl)c1)c1ccccc1 (configuration not stated) | 12
COc1ccccc1C(=O)NNC(=O)C(=O)NC(C)C | 21
Cc1ccccc1C(=O)Nc1ccccc1N1CCCCC1 | 4
Cc1cc(CNC(=O)c2cc(COc3c(F)cccc3F)on2)nn1C | 1
COC(C)(C)[C@H](O)COc1c2ccoc2cc2oc(=O)ccc12 | 9
O=C(c1ccco1)N(CCC(c1ccccc1)c1ccco1)Cc1ccccc1 (configuration not stated) | 21
COc1cc(O)sc1C=Nc1ccc(Cl)cc1 | 13
COc1ccc(C(=O)NC(C)c2ccccc2)cc1Br (configuration not stated) | 20
CCN(CC)CCNC(=O)/C(=C/c1cn(CC)c2ccccc12)NC(=O)c1cc(OC)c(OC)c(OC)c1 | -2
O=C(NCc1ccc2c(c1)OCO2)NC12CC3CC(CC(C3)C1)C2 | 10
COc1ccc2nc(NC(=O)c3cccs3)sc2c1 | 22
CC(OC(=O)CCCCCN=C1NS(=O)(=O)c2ccccc21)C(=O)Nc1cc(Cl)cc(Cl)c1 (configuration not stated) | 10

The list continues:
Molecule | Biofilm kill mix
COCCNC(=O)/C(C#N)=C/c1cc(C(C)C)c(OC)cc1C | 9
O=C(N/N=C\c1ccc(OC(=O)c2ccco2)cc1)c1ccc(Cl)cc1 | 23
COc1ccc(OC)c(C(=O)c2ccccc2)c1 | -7
FC(F)(F)c1cnc(C(c2ccccn2)c2ncn[nH]2)c(Cl)c1 (configuration not stated) | 17
COc1ccc(C(NC(=O)C(C)C)c2c(O)ccc3ccccc23)cc1 (configuration not stated) | 0
CCSc1nc2ccccc2c(=O)n1C1CCOC(C)(C)C1 (configuration not stated) | 12
CCOC(=O)c1c(C)nc2ccc(Cl)cc2c1-c1ccccc1 | 7
CCCc1nnc(NC(=O)CSc2nc3ccccc3[nH]2)s1 | 12
COc1cccc(C(=O)N2N=C(c3ccccn3)CC2(O)C(F)(F)F)c1 (configuration not stated) | 8
CCOC(=O)COc1ccc(C(=O)CC)cc1OC | 13
C[C@H]1O[C@@H](O[C@H]2[C@@H](O)C[C@H](O[C@H]3[C@@H](O)C[C@H](O[C@H]4CC[C@@]5(C)[C@H](CC[C@@H]6[C@@H]5C[C@@H](O)[C@]5(C)[C@@H](C7=CC(=O)OC7)CC[C@]65O)C4)O[C@@H]3C)O[C@@H]2C)C[C@H](O)[C@@H]1O | 8
Cc1ccc(Nc2nc(-c3ccccc3)c(CC(=O)O)s2)cc1 | 18
O=S1(=O)CCN(C(CO)c2ccccc2)CC1 (configuration not stated) | 10
Clc1ccccc1-c1nnc2n1-c1ccccc1SC2 | 17
CCCS(=O)c1nc(C)cc(C)c1S(C)(=O)=O (configuration not stated) | 13
COCCN1Cc2cccc(C(=O)Nc3ccc(S(=O)(=O)N4CCCCC4)cc3)c2C1=O | 3
CN(C)C(=O)C1C2NC(=S)N(c3ccccc3)C1(C)Oc1ccccc12 (configuration not stated) | 13
O=C(NCCCO)c1cc2ccccc2[nH]1 | 11
CN(C)c1ccc(/C=C/c2nnnn2-c2ccccc2)cc1 | 15
CCc1cc2c(SCC(=O)N3CC(=O)Nc4ccccc43)ncnc2s1 | 15

Continuation.
Molecule | Biofilm kill mix
O=C(NCc1ccncc1)C(=O)N/N=C/c1ccccn1 | 2
Cc1ccc(NC(=O)N2CCN(S(=O)(=O)c3ccccc3)CC2)cc1 | 10
CCOC(=O)C1=CN(Cc2ccc(OC)cc2)C=C(C(=O)OCC)C1c1cccs1 | 35
CCN1CCN(c2cc(C)c3cc(NC(=S)N4CCCC(C)C4)ccc3n2)CC1 (configuration not stated) | 15
Cc1ccc(-n2ccc(-c3nn(-c4ccccc4)ccc3=O)n2)cc1 | 13
CC(=O)Nc1ccc(C)c(NS(=O)(=O)c2cccc(C(F)(F)F)c2)c1 | 16
CCCCn1c(O)c(N=NC(=O)c2ccco2)c2ccccc21 | 18
CC(=O)Nc1ccc(S(=O)(=O)Oc2ccc(/C=N/N=C3/NC(=O)C(CC(=O)O)S3)cc2)cc1 (configuration not stated) | 13
COC(=O)C(Cc1c[nH]c2ccccc12)N1CCS(=O)(=O)CC1 (configuration not stated) | 12
COc1ccc(Cc2nnc(SCC(=O)N3CCCC(C)C3)o2)cc1 (configuration not stated) | 1
Cc1ccc(/C=N/N2CCCCC2)o1 | 4
CCc1nc(N2CCC3(CC2)OCCO3)c2nnn(Cc3ccccc3)c2n1 | 17
CCOC(=O)C(CC)Sc1nnc2cc(C)c3ccccc3n12 (configuration not stated) | 12
O=C(c1cc(COc2c(F)cccc2F)on1)N1CCSCC1 | 23
CCOC(=O)c1c(C)cc(C)[nH]c1=O | 13
COC(=O)c1cn(NC(=O)Cc2ccccc2Br)c(=O)c2ccccc12 | 20
CC1CN(c2nc3ccccn3c(=O)c2/C=C(\C#N)C(N)=O)CC(C)O1 (configuration not stated) | 15
O=C(Cc1ncon1)Nc1ccc(F)c(F)c1F | 3
Cn1cc(S(=O)(=O)NCCc2ccccc2)c(=O)n(C)c1=O | 15
O=C(Cn1c(=O)c2sccc2n(Cc2ccc([N+](=O)[O-])cc2)c1=O)NCCc1ccccc1 | 6

Reformatted field by field: entries from further up.
> COc1ccc(Cc2nnc(SCC(=O)N3CCCC(C)C3)o2)cc1 (configuration not stated)
  Biofilm kill mix: 1

> O=C(Cn1c(=O)c2sccc2n(Cc2ccc([N+](=O)[O-])cc2)c1=O)NCCc1ccccc1
  Biofilm kill mix: 6

> COC(=O)c1cn(NC(=O)Cc2ccccc2Br)c(=O)c2ccccc12
  Biofilm kill mix: 20
